T cruzi repl: T. cruzi replication inhibition. T. cruzi beta-gal in NIH3T3, luminescence, 90 h. inhibition, % (test concentration not listed). 300,000 tested, 1.4% active;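 active = mean inhibition across valid replicates above about 55%, limit read from the data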;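 note: signal also drops with host cell toxicity which is not excluded here; 0% = plate median of DMSO wells and 100% = zero luminescence signal; higher percent means less beta-gal luminescence so fewer parasites; stock transfer was 50 nL into about 50 µL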
AF4-AF9 inh: inhibitors of human MLL-AF4/AF9 interaction; AlphaScreen, biotin-AF4 peptide binding to FLAG-AF9; inhibition, % at 10 µM; 350,000 tested, 0.47% active; AID 651704;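 active = every replicate reaching a set inhibition limit, whatever the replicate mean, cut at about 25% in these data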;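 note: 0% = plate neutral control median and 100% = total signal loss; the record names both 10 and 1 µM as test concentration; the first replicate is given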
Target sequence (P42568 whole entry, looked up): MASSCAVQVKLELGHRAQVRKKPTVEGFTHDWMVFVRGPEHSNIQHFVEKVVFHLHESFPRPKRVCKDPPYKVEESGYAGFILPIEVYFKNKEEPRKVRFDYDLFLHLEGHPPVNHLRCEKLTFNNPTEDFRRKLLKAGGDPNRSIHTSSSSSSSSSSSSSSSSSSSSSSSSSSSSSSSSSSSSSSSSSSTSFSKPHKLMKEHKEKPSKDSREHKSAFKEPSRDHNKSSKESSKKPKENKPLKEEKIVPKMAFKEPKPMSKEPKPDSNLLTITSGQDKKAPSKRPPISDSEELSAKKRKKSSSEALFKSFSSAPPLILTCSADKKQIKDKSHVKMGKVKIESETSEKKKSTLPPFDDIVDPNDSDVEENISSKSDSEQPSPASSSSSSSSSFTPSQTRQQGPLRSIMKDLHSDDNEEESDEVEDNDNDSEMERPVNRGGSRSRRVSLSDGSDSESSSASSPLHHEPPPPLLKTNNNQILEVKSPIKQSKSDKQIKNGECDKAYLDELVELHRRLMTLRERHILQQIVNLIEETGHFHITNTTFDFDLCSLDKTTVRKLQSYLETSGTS
UCH37 DUB inh: blocks the human deubiquitinase UCH37; Q9Y5K5; purified proteasome/UCH37, Ub-AMC cleavage fluorescence; inhibition, % (no concentration beside the values); 330,000 tested, 0.33% active; AID 588478;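 active = mean of two replicates above 20%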;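 note: 0% = compound-free wells with enzyme and 100% = wells lacking proteasome; stock transfer was 100 nL into about 20 µL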
Target sequence (Q9Y5K5 whole entry, looked up): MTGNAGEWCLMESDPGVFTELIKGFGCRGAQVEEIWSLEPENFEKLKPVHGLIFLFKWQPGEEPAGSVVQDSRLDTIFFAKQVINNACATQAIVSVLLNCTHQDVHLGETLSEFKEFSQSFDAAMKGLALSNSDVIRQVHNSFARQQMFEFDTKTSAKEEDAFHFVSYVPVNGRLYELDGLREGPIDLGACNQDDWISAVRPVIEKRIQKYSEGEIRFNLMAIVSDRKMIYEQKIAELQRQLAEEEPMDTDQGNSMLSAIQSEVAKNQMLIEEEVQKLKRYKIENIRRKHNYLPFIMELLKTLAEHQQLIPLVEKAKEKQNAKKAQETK
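Material: Human UCH37 enzyme supplied as purified proteasome complex | Schedule: 30 min preincubation with enzyme, 25 min cleavage at room temperature | Detection: AMC fluorescence 355/460 nm | Measure: % inhibition of Ub-AMC cleavage fluorescence | Controls: Wells without proteasome as full block, compound-free enzyme plus substrate as uninhibited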
FGF22 binding: shifts melting point of recombinant human FGF22; recombinant FGF22 thermal shift, SYPRO orange fluorescence; percent of sucrose octasulfate shift, DMSO zero; calls only at 9.99 µM; 340,000 tested, 1.5% active; Q9HCT0; AID 651658;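 active = melting point raised past a set limit in the mean and every replicate; three in four hits are not shown here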
Target sequence (Q9HCT0 whole entry, looked up): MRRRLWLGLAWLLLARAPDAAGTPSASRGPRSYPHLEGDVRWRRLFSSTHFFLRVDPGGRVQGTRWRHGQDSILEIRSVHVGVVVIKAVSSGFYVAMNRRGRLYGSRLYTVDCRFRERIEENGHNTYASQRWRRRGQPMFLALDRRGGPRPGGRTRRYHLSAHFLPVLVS
Ecoli rRNA inh: selective bacterial rRNA inhibition in E. coli; E. coli WT GFP vs humanized-ribosome RFP mutants, fluorescence, 24 h; stronger effect = lower value; DMSO median 0, no signal -100; GFP signal change (wild-type ribosome), % (no concentration beside the values); 350,000 tested, 1.6% active; AID 720706;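 active = significant combined selectivity score with lowered wild-type GFP, culture density cut under 30%, mutant RFP and density less affected; inactive = any of these conditions unmet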; note: one replicate is shown; some compounds called inactive have numbers as strong as hits
A1 inh: inhibitors of the anti-apoptotic protein A1, read as caspase activation | MEF A1-2A-BIM cells, Caspase-Glo 3/7 luminescence, 3 h; percent of clofoctol response, vehicle zero | caspase activation, % (concentration not given with the values) | 330,000 tested, 0.066% active;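 active = over half of replicate activation scores above 10%, or exactly half above 10 with the replicate mean above 10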;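 note: wells of about 30 µL received 50 nL stock; many hits fall short of the cut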
E coli growth: inhibitors of Escherichia coli growth. OD600 absorbance (test concentration not listed). 330,000 tested, 0.21% active. AID 1053175. OD600, 23 h; stronger effect = lower value;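 active = OD600 absorbance below the run mean of sample wells minus 3.6 SD, in any replicate, cut at about 0.56 in these data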;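 note: stock transfer was 300 nL into about 60 µL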
Beta cell apopt: beta cell apoptosis inhibition; INS-1E cytokine-induced death, ATP luminescence, 48 h; percent of positive-control rescue, neutral wells zero; protection from apoptosis, % (no concentration beside the values); 300,000 tested, 0.8% active; AID 435005;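 active = all replicates at 75% or more, or half of them and the mean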;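 note: 0% = cytokine-treated negative control wells and 100% = positive control rescue; higher means more ATP so stronger rescue from cytokine killing; wells of about 40 µL received 100 nL stock; the first replicate is given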
Ecoli rRNA inh OD600: further read-out of Ecoli rRNA inh, marked with its call; OD600 change, %; measured here: OD600 growth;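 optical density of the mix in the first replicate; 0 = DMSO median and -100 = no signal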
Ecoli rRNA inh RFP: also measured in Ecoli rRNA inh; calls as there; RFP signal change, %; measured here: RFP humanized mutant strains;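 first replicate; 0 = DMSO median and -100 = no signal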
* marks the source's active call; other numbers are inactive results. A portion of the library (hit frequency here may not be typical).

`O=C(CN1C(=O)/C(=C\c2cccc(F)c2)Oc2ccccc21)N1CCN(c2ccccn2)CC1` gave T cruzi repl -3, UCH37 DUB inh inactive, A1 inh 0.9, E coli growth 0.73 and Beta cell apopt 0.
`Cc1ccc(NC(=S)N2CC(C)OC(C)C2)cc1C` (centres undefined) gave AF4-AF9 inh 0.0, UCH37 DUB inh 1.0, FGF22 binding inactive, Ecoli rRNA inh 23, A1 inh -0.2, E coli growth 0.72, Beta cell apopt 2, Ecoli rRNA inh OD600 14 and Ecoli rRNA inh RFP 2.8.
Screening O=C(NC1CCN(C(=O)c2ccccc2Br)CC1)c1ccccc1 returned T cruzi repl -3, AF4-AF9 inh 5.6, UCH37 DUB inh 4.7, FGF22 binding inactive, Ecoli rRNA inh -1, A1 inh -0.4, E coli growth 0.66, Beta cell apopt 1, Ecoli rRNA inh OD600 4 and Ecoli rRNA inh RFP -3.4.
Screening Cc1ccc(C(=O)n2nnc3ccccc32)cc1[N+](=O)[O-] returned T cruzi repl -10, UCH37 DUB inh 3.6, A1 inh 0.2, E coli growth 0.7 and Beta cell apopt -10.
COc1ccc(C(CNC(=O)c2cccc(S(=O)(=O)Nc3ccc(F)cc3)c2)N(C)C)cc1 (centres undefined) was read as AF4-AF9 inh -0.4, UCH37 DUB inh -2.5, FGF22 binding inactive, Ecoli rRNA inh 4, E coli growth 0.67, Ecoli rRNA inh OD600 4 and Ecoli rRNA inh RFP -1.6.
For CCOC(=O)c1sc(=NC(=O)c2ccco2)n(C)c1C the results were AF4-AF9 inh -1.5, UCH37 DUB inh -0.9, FGF22 binding inactive, Ecoli rRNA inh 19, A1 inh -0.1, E coli growth 0.68, Beta cell apopt 2, Ecoli rRNA inh OD600 19 and Ecoli rRNA inh RFP 4.3.
Screening Cc1cc(C)n2[nH]c(=O)c(N=Nc3ccccc3)c2n1 returned T cruzi repl 3, UCH37 DUB inh 4.4, A1 inh -0.2, E coli growth 0.73 and Beta cell apopt -5.
For COC(=O)C1=C(C)NC(C)=C(C(=O)OC)C1c1cn(-c2ccccc2)nc1-c1ccco1 the results were T cruzi repl 37, UCH37 DUB inh -32, A1 inh -0.8, E coli growth 0.72 and Beta cell apopt 0.
O=C(NCc1cc(Br)cc(Br)c1OC(=O)c1ccccc1[N+](=O)[O-])c1ccccc1 was read as T cruzi repl 9, UCH37 DUB inh 2.2, A1 inh 2.0, E coli growth 0.61 and Beta cell apopt 2.
CCOC(=O)NC(=S)Nc1c(C)n(C)n(-c2ccccc2)c1=O was read as T cruzi repl 6, AF4-AF9 inh -1.2, UCH37 DUB inh -2.4, FGF22 binding inactive, Ecoli rRNA inh 6, A1 inh -0.6, E coli growth 0.64, Beta cell apopt 2, Ecoli rRNA inh OD600 6 and Ecoli rRNA inh RFP -2.3.

3 compounds from above, arranged by number of heavy atoms, high to low.
COc1ccc(C(CNC(=O)c2cccc(S(=O)(=O)Nc3ccc(F)cc3)c2)N(C)C)cc1 (centres undefined) was read as AF4-AF9 inh -0.4, UCH37 DUB inh -2.5, FGF22 binding inactive, Ecoli rRNA inh 4, E coli growth 0.67, Ecoli rRNA inh OD600 4 and Ecoli rRNA inh RFP -1.6.
Screening O=C(NC1CCN(C(=O)c2ccccc2Br)CC1)c1ccccc1 returned T cruzi repl -3, AF4-AF9 inh 5.6, UCH37 DUB inh 4.7, FGF22 binding inactive, Ecoli rRNA inh -1, A1 inh -0.4, E coli growth 0.66, Beta cell apopt 1, Ecoli rRNA inh OD600 4 and Ecoli rRNA inh RFP -3.4.
Screening Cc1cc(C)n2[nH]c(=O)c(N=Nc3ccccc3)c2n1 returned T cruzi repl 3, UCH37 DUB inh 4.4, A1 inh -0.2, E coli growth 0.73 and Beta cell apopt -5.

By substructure, those above with a furan ring, fused or not.
For CCOC(=O)c1sc(=NC(=O)c2ccco2)n(C)c1C the results were AF4-AF9 inh -1.5, UCH37 DUB inh -0.9, FGF22 binding inactive, Ecoli rRNA inh 19, A1 inh -0.1, E coli growth 0.68, Beta cell apopt 2, Ecoli rRNA inh OD600 19 and Ecoli rRNA inh RFP 4.3.
For COC(=O)C1=C(C)NC(C)=C(C(=O)OC)C1c1cn(-c2ccccc2)nc1-c1ccco1 the results were T cruzi repl 37, UCH37 DUB inh -32, A1 inh -0.8, E coli growth 0.72 and Beta cell apopt 0.

Continued:
COc1cc(C(=O)NCc2cc3cc(Cl)ccc3n2C)cc(OC)c1OC was read as T cruzi repl 4, AF4-AF9 inh 1.6, UCH37 DUB inh -4.2, FGF22 binding inactive, Ecoli rRNA inh 5, A1 inh 1.0, E coli growth 0.71, Beta cell apopt -4, Ecoli rRNA inh OD600 12 and Ecoli rRNA inh RFP 5.4.
Screening COC(=O)c1[nH]c2c(c1C(=O)OC)CCc1ccccc1-2 returned T cruzi repl 11, AF4-AF9 inh 2.2, UCH37 DUB inh -446, FGF22 binding inactive, Ecoli rRNA inh -18, A1 inh -0.1, E coli growth 0.66, Beta cell apopt 3, Ecoli rRNA inh OD600 -19 and Ecoli rRNA inh RFP 5.0.
Screening N#Cc1c(Nc2ccccc2)c(C=NCCN2CCOCC2)c[nH]c1=O returned T cruzi repl -2, UCH37 DUB inh -2.0, A1 inh -0.2, E coli growth 0.7 and Beta cell apopt -7.
`CCOc1ccc(NC(=O)c2ccc(C#CC(C)(C)O)cc2)cc1` gave T cruzi repl -4, UCH37 DUB inh 6.8, A1 inh 1.0, E coli growth 0.75 and Beta cell apopt 0.
`Cn1c(N)c(C(=O)COC(=O)c2ccc(S(=O)(=O)N3CCCCC3)cc2)c(=O)n(C)c1=O` gave T cruzi repl -7, UCH37 DUB inh 2.7, A1 inh 0.7, E coli growth 0.68 and Beta cell apopt -3.
Screening O=C1CC(NS(=O)(=O)c2ccc([N+](=O)[O-])cc2)CN1c1ccc2c(c1)OCCO2 (centres undefined) returned T cruzi repl 36, AF4-AF9 inh 4.1, UCH37 DUB inh 0.7, FGF22 binding inactive, Ecoli rRNA inh 1, A1 inh -0.3, E coli growth 0.66, Ecoli rRNA inh OD600 -3 and Ecoli rRNA inh RFP -0.3.
For CCCCN1C(=O)/C(=C/C=C2\Oc3ccccc3N2CC)SC1=S the results were T cruzi repl 12, AF4-AF9 inh 0.1, UCH37 DUB inh 6.2, FGF22 binding inactive, Ecoli rRNA inh -5, E coli growth 0.73, Ecoli rRNA inh OD600 0 and Ecoli rRNA inh RFP 46.
`CCCCCSc1nc2c(c(=O)[nH]c(=O)n2C)n1CC` gave T cruzi repl -3, AF4-AF9 inh -2.7, UCH37 DUB inh 6.8, FGF22 binding inactive, Ecoli rRNA inh -9, A1 inh 0.0, E coli growth 0.76, Beta cell apopt 3, Ecoli rRNA inh OD600 8 and Ecoli rRNA inh RFP -2.1.
`O=C(NCC(=O)N(CC1CCCO1)C(C(=O)NC1CCCC1)c1ccc(F)cc1)c1ccco1` (centres undefined) gave T cruzi repl -3, UCH37 DUB inh 0.4, A1 inh -0.2, E coli growth 0.74 and Beta cell apopt -2.
`O=C(NCc1ccc2c(c1)OCO2)C1CCN(c2ncccn2)CC1` gave T cruzi repl -8, UCH37 DUB inh -5.2, A1 inh 5.2*, E coli growth 0.72 and Beta cell apopt -3.
`CN1CCN(CP(=O)(N2CCOCC2)N2CCOCC2)CC1` gave T cruzi repl -16, UCH37 DUB inh 3.2, A1 inh -0.1, E coli growth 0.7 and Beta cell apopt 0.
CN(C)c1ccc(CNc2ccc3c(c2)ncn3C(C)(C)C)cc1 was read as T cruzi repl 38, AF4-AF9 inh 35*, UCH37 DUB inh 0.1, FGF22 binding inactive, Ecoli rRNA inh 9, A1 inh 1.1, E coli growth 0.65, Beta cell apopt 5, Ecoli rRNA inh OD600 10 and Ecoli rRNA inh RFP -0.4.
Cc1ccccc1NC(=O)COC(=O)c1c[nH]c(=O)[nH]c1=O was read as T cruzi repl -8, AF4-AF9 inh -2.0, UCH37 DUB inh 3.1, FGF22 binding inactive, Ecoli rRNA inh 14, A1 inh -0.1, E coli growth 0.7, Beta cell apopt -7, Ecoli rRNA inh OD600 8 and Ecoli rRNA inh RFP -1.3.
For CCN(c1ccccc1)S(=O)(=O)c1ccc(F)c(C(=O)O)c1 the results were T cruzi repl -15, UCH37 DUB inh 4.0, A1 inh 0.7, E coli growth 0.74 and Beta cell apopt -7.
Screening O=C(COC(=O)C1CCC1)Nc1ccc(OC(F)F)cc1 returned T cruzi repl -16, UCH37 DUB inh 0.2, A1 inh 1.1, E coli growth 0.71 and Beta cell apopt 0.
CN(C)c1nc(N(C)C)n(C(=O)c2cccs2)n1 was read as T cruzi repl -7, AF4-AF9 inh 1.4, UCH37 DUB inh 4.8, FGF22 binding inactive, Ecoli rRNA inh 7, A1 inh 0.2, E coli growth 0.69, Beta cell apopt -1, Ecoli rRNA inh OD600 -10 and Ecoli rRNA inh RFP 0.1.
For C[C@@H]1CC=C[C@H]2[C@H]1C(=O)N(Cc1ccccc1)[C@H]2c1ccc(-c2ccoc2)cc1F the results were T cruzi repl 39, UCH37 DUB inh 3.3, FGF22 binding inactive, Ecoli rRNA inh -7, A1 inh -0.2, Beta cell apopt 10, Ecoli rRNA inh OD600 -2 and Ecoli rRNA inh RFP 2.3.
COc1cccc(C(C2C(=O)CC(C)(C)CC2=O)C2C(=O)CC(C)(C)CC2=O)c1 was read as T cruzi repl -1, AF4-AF9 inh -6.8, UCH37 DUB inh 2.6, FGF22 binding inactive, Ecoli rRNA inh 11, A1 inh -0.7, E coli growth 0.66, Beta cell apopt -6, Ecoli rRNA inh OD600 -4 and Ecoli rRNA inh RFP -1.9.
`CCOC(=O)c1c(NC(=O)c2ccn(CC)n2)sc2c1CCC2` gave T cruzi repl 35, AF4-AF9 inh 0.3, UCH37 DUB inh -94, Ecoli rRNA inh -9, A1 inh 0.1, E coli growth 0.63, Beta cell apopt 5, Ecoli rRNA inh OD600 -1 and Ecoli rRNA inh RFP -0.1.
For O=C(N/N=C/C(Br)=C/c1ccccc1)c1ccc([N+](=O)[O-])cc1 the results were T cruzi repl -15, AF4-AF9 inh -3.0, FGF22 binding inactive, Ecoli rRNA inh 23, A1 inh -0.2, Beta cell apopt -3, Ecoli rRNA inh OD600 20 and Ecoli rRNA inh RFP 0.7.
Screening C=CCCCCCCCCC(=O)N1CCN(c2cc3c(cc2F)c(=O)c(C(=O)O)cn3CC)CC1 returned T cruzi repl -6, AF4-AF9 inh 1.2, UCH37 DUB inh -92, FGF22 binding inactive, Ecoli rRNA inh -48, A1 inh 2.3, E coli growth 0.3*, Beta cell apopt -4, Ecoli rRNA inh OD600 -75 and Ecoli rRNA inh RFP -15.
COc1ccc(NC(=O)Nc2cccc3c2O[C@H](CN(C)C(=O)Nc2ccc(C(F)(F)F)cc2)[C@@H](C)CN([C@H](C)CO)C3=O)cc1 was read as AF4-AF9 inh 3.3, UCH37 DUB inh 2.8, FGF22 binding inactive, Ecoli rRNA inh -6, A1 inh 0.3, Beta cell apopt -2, Ecoli rRNA inh OD600 -1 and Ecoli rRNA inh RFP -1.4.

Bioassay records (PubChem BioAssay)
